Screening results deposited in PubChem BioAssay by GNF / Scripps  Winzeler lab.
P. yoelii liver – exo-erythrocytic parasite development inhibition – imaging, Malaria Box, P. yoelii, HepG2-A16-CD81EGFP, dose response (AID 602156); P. yoelii liver stage in HepG2-A16-CD81EGFP, imaging; first-round cut-off not given here; calls after a first round at 10 µM; hits with a dose series show IC50 in µM; 5,700 tested, 4.8% active; in the data active = a potency from the dose series;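 also: infected cells exposed to compound for 48 hours before fixation; stained parasite area by imaging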
* = called active by the depositor. Not all compounds are listed (hit frequency here may not be typical).

For Cc1ccc(NC(=O)c2cc3ccccc3oc2=O)nc1 the results were P. yoelii liver inactive.
For Cc1ccc(C(=O)N(C)CCCNc2ccnc3cc(Cl)ccc23)cc1 the results were P. yoelii liver inactive.
`CCCOC(=O)C1=C(C)NC2=C(C(=O)CC(c3ccc(OC)c(OC)c3)C2)C1c1cccc(C)c1` (centres undefined) gave P. yoelii liver inactive.
Screening COC(=O)c1c(-c2c(Cl)cccc2Cl)noc1C=CNc1ccccc1 returned P. yoelii liver inactive.
For CCOc1cc2c(cc1OCC)C(c1cc(Cl)ccc1O)NCC2 (centres undefined) the results were P. yoelii liver inactive.
Cc1cccc(CC(=O)N2CCC[C@@H]3CN(C(=O)CCc4cccnc4)CC[C@@H]32)c1 was read as P. yoelii liver inactive.
`CCCCCCCCCCCCOCCCNC(=O)c1cccc(N)c1` gave P. yoelii liver inactive.
Screening CCOC(=O)C1(CC2CCCCO2)CCN(Cc2cccc(C)n2)CC1 (centres undefined) returned P. yoelii liver inactive.
Cc1ccc(-c2[nH]n3c(=O)c4c(nc3c2C)CCCC4)cc1 was read as P. yoelii liver 0.0113µM*.
CCOC(=O)c1sc(NC(=O)C(C)Sc2nnc(CNC(=O)c3cccc(F)c3)n2-c2cccc(C)c2)c(C(=O)OCC)c1C (centres undefined) was read as P. yoelii liver inactive.

Quoted at random: five compounds from above
For CCOc1cc2c(cc1OCC)C(c1cc(Cl)ccc1O)NCC2 (centres undefined) the results were P. yoelii liver inactive.
Screening CCOC(=O)C1(CC2CCCCO2)CCN(Cc2cccc(C)n2)CC1 (centres undefined) returned P. yoelii liver inactive.
CCOC(=O)c1sc(NC(=O)C(C)Sc2nnc(CNC(=O)c3cccc(F)c3)n2-c2cccc(C)c2)c(C(=O)OCC)c1C (centres undefined) was read as P. yoelii liver inactive.
Cc1cccc(CC(=O)N2CCC[C@@H]3CN(C(=O)CCc4cccnc4)CC[C@@H]32)c1 was read as P. yoelii liver inactive.
Cc1ccc(-c2[nH]n3c(=O)c4c(nc3c2C)CCCC4)cc1 was read as P. yoelii liver 0.0113µM*.

(list continues)
C=CCn1c(=O)c(C(=O)NCC[N+](CC)(CC)CC=C)c(O)c2ccccc21 was read as P. yoelii liver inactive.
`COc1ccc(OCC(O)CNC2CCN(CC(O)COc3ccc(Cl)c(Cl)c3)CC2)cc1` (centres undefined) gave P. yoelii liver inactive.
Screening CCN1CCN(c2cc(C)c3cc(NC(=O)/C=C/c4ccc(OC)cc4)ccc3n2)CC1 returned P. yoelii liver inactive.
`CCOC(=O)C1=C(C)NC2=C(C(=O)CC(c3ccc(OC)c(OC)c3)C2)C1c1ccccc1Br` (centres undefined) gave P. yoelii liver inactive.
`OC(CCNC1CCCCC1)COc1cccc2ccccc12` (centres undefined) gave P. yoelii liver inactive.
`c1ccc(-c2cccc(-c3ccccn3)n2)nc1` gave P. yoelii liver inactive.
For CCc1c(C)c(C#N)c2nc3ccccc3n2c1NCc1ccccc1 the results were P. yoelii liver inactive.
`CCOC(=O)c1c[nH]c2ccc(CC)cc2c1=O` gave P. yoelii liver inactive.
Screening CN(C)CCNC(=O)COc1ccc(-c2nc3ccccc3s2)cc1CN(C)C returned P. yoelii liver inactive.
For C/C=C/C(C(=O)NCCCC)N1C(=O)c2cc(NC(C)=O)ccc2NC(=O)[C@@H]1C (some centres undefined) the results were P. yoelii liver inactive.
For CCCCCCCCNC(C)C(O)c1ccc(SC(C)C)cc1 (centres undefined) the results were P. yoelii liver inactive.
Screening CCCCCc1ccc(-c2ccc(/C(C=[N+](C)C)=C\N(C)C)cc2)cc1 returned P. yoelii liver inactive.
Screening COc1ccc(C(=O)N(CCCC(C)Nc2cc(OC)cc3cccnc23)Cc2ccccc2OC)cc1 (centres undefined) returned P. yoelii liver inactive.
Screening CCOC(=O)c1cnc2c(OC)cccc2c1Nc1cccc(C(F)(F)F)c1 returned P. yoelii liver inactive.
Screening CC(C)(C)CC(=O)NCc1ccc(OC2CCN(CC(c3ccccc3)c3ccccc3)CC2)cc1 returned P. yoelii liver inactive.
`COc1cc2nc(NCCCOC(C)C)n3nc(-c4ccccc4)nc3c2cc1OC` gave P. yoelii liver inactive.
`CCCCN1C(=Cc2ccc3ccccc3[n+]2CC)Sc2ccccc21` gave P. yoelii liver inactive.
Screening CCCCNCCOCCOc1ccc(Br)cc1 returned P. yoelii liver inactive.
Screening Cc1ccccc1CSc1ccc(-c2cccs2)nn1 returned P. yoelii liver inactive.
O=C(Nc1ccc(-c2ccc(Cl)cc2)cc1)c1cccs1 was read as P. yoelii liver 0.151µM*.
`CC(=O)N1CCN=C1Nc1c(Cl)nc(C)nc1Cl` gave P. yoelii liver inactive.
Screening Oc1c(C(Nc2ccccn2)c2cccc(Cl)c2Cl)ccc2cccnc12 (centres undefined) returned P. yoelii liver 0.402µM*.
Nc1nc(Cl)nc2ccccc12 was read as P. yoelii liver inactive.
Screening Cc1nc(NN=Cc2c(O)ccc3ccccc23)cc(N2CCCCC2)n1 returned P. yoelii liver inactive.
CC[n+]1c(C=C2Sc3oc4ccccc4c3N2C)ccc2cc(C)ccc21 was read as P. yoelii liver inactive.
For CC1(C)N=C(N)N=C(N)N1c1ccc(F)cc1 the results were P. yoelii liver 0.0189µM*.
For COC(=O)c1[nH]c2ccc(Cl)cc2c1NC(=O)C(C)N1CCN(C2CCCCC2)CC1 (centres undefined) the results were P. yoelii liver inactive.
`CCOc1ccc(N2C(N)=NC(N)=NC2(C)C)cc1` gave P. yoelii liver 0.0468µM*.
CCOC(=O)C1=C(C)NC2=C(C(=O)CC(c3ccc(OC)c(OC)c3)C2)C1c1cccc(Br)c1 (centres undefined) was read as P. yoelii liver inactive.
`COc1cc(/C=C(\C#N)c2nc3ccccc3[nH]2)ccc1OCc1ccccc1F` gave P. yoelii liver inactive.
Screening O[C@@H]1[C@H]2c3cc4c(cc3CN3CCC(=C[C@@H]1O)[C@H]23)OCO4 returned P. yoelii liver inactive.
CCCCN(CCCC)c1nc(=O)cc(-c2ccc(Cl)cc2)o1 was read as P. yoelii liver inactive.
`COc1cccc(-c2nc(CS(=O)(=O)CC(=O)N3CC(C)CC(C)C3)c(C)o2)c1` (centres undefined) gave P. yoelii liver inactive.
`COC(=O)c1c(-c2c(Cl)cccc2Cl)noc1/C=C/Nc1ccc(Cl)cc1` gave P. yoelii liver inactive.
`COCCOC(=O)C1=C(C)NC2=C(C(=O)CCC2)C1c1ccc(OC)c(OC)c1OC` (centres undefined) gave P. yoelii liver inactive.
`CCN1CCC(Nc2ccnc3cc4ccccc4cc23)CC1` gave P. yoelii liver inactive.
For Cc1cc(Nc2ccccc2)nc(Nc2ccccc2)n1 the results were P. yoelii liver inactive.
CCC(C)NC(=O)CN(c1cc(OC)ccc1OC)S(C)(=O)=O (centres undefined) was read as P. yoelii liver inactive.
For O=C1C2=C(Nc3ccccc3SC2c2ccc(Br)cc2)c2ccccc21 (centres undefined) the results were P. yoelii liver 0.327µM*.
CC(C)CN(CC(O)CN(CCN1CCOCC1)S(=O)(=O)Cc1ccccc1)C(=O)C1CCCN1C(=O)OC(C)(C)C (centres undefined) was read as P. yoelii liver inactive.
`CC(C)c1ccc2c(c1)c1c3c([n+](C)ccn32)CCC1` gave P. yoelii liver inactive.
`Fc1ccc(C2(CCCSc3nnc4c(n3)[nH]c3ccccc34)OCCO2)cc1` gave P. yoelii liver inactive.
CCCN(CCC)C1=CC(=O)C(C(C)(C)C)=CC1=O was read as P. yoelii liver inactive.
`COc1cc(CNCCCn2ccnc2)ccc1OCc1ccccc1` gave P. yoelii liver inactive.
CC(=O)Nc1cccc(NC(=O)C(F)(F)F)c1 was read as P. yoelii liver inactive.
For O=C(Cn1ccc(=NCc2ccccc2)cc1)c1ccc(Cl)cc1 the results were P. yoelii liver inactive.
`O=C(Nc1ccc(-c2nc3ccc(NC(=O)C(c4ccccc4)c4ccccc4)cc3[nH]2)cc1)C(c1ccccc1)c1ccccc1` gave P. yoelii liver inactive.
CCCCNC(=O)c1nn(-c2ccc(OC)cc2)c(=O)c2ccccc12 was read as P. yoelii liver inactive.
O=C(C=Cc1ccccc1)Nc1ccc(-c2nc3cc(NC(=O)C=Cc4ccccc4)ccc3[nH]2)cc1 was read as P. yoelii liver inactive.
Screening c1ccc(Oc2ccc(Nc3nc4nonc4nc3Nc3ccc(Oc4ccccc4)cc3)cc2)cc1 returned P. yoelii liver inactive.

Four structures already listed, ordered by number of heavy atoms, low to high:
CC(=O)Nc1cccc(NC(=O)C(F)(F)F)c1 was read as P. yoelii liver inactive.
`CC(C)c1ccc2c(c1)c1c3c([n+](C)ccn32)CCC1` gave P. yoelii liver inactive.
`Fc1ccc(C2(CCCSc3nnc4c(n3)[nH]c3ccccc34)OCCO2)cc1` gave P. yoelii liver inactive.
`O=C(Nc1ccc(-c2nc3ccc(NC(=O)C(c4ccccc4)c4ccccc4)cc3[nH]2)cc1)C(c1ccccc1)c1ccccc1` gave P. yoelii liver inactive.

Continuation.
For CN(C)CCN1CCN(c2cncc(-c3cccnc3)n2)CC1 the results were P. yoelii liver inactive.
Screening CC(=O)N1CCN(c2ccc(NC(=S)NC(=O)c3ccc(C)cc3)cc2)CC1 returned P. yoelii liver inactive.
`O=[N+]([O-])c1ccc(S(=O)(=O)N2CCN(C(=S)NCCc3ccccc3)CC2)cc1` gave P. yoelii liver inactive.
COC(=O)[C@@H]1C[C@H](NC(=O)c2ccc(OC)cc2OC)CN1Cc1cccc2ccccc12 was read as P. yoelii liver inactive.
O=C1C(N2CCCCC2)=C(N2CCCCC2)C(=O)c2ccccc21 was read as P. yoelii liver inactive.
C=CCc1cc(-c2cc(CC=C)c(O)c(CN(CC)CC)c2)cc(CN(CC)CC)c1O was read as P. yoelii liver inactive.
`COc1ccc(C=C2N=C(c3ccc(Cl)cc3)N(c3ccccc3)C2=O)cc1OC` gave P. yoelii liver inactive.
`COCCn1c(=S)[nH]c2cc(C(=O)NCCc3ccc(S(N)(=O)=O)cc3)ccc2c1=O` gave P. yoelii liver inactive.
For CC(C)(C)c1ccc2[nH]c3c(c2c1)CCCC3=NO the results were P. yoelii liver inactive.
Cc1ncc(CCCCN(C)C)c2c1[nH]c1ccccc12 was read as P. yoelii liver 2.77µM*.
CCOC(=O)N1CCN(C(=O)CCCCn2c(=S)[nH]c3ccsc3c2=O)CC1 was read as P. yoelii liver inactive.
Screening CC(C)c1ccc(OCC(=O)NN=Cc2cccc([N+](=O)[O-])c2)cc1 returned P. yoelii liver inactive.
COCCNc1cc(-c2ccccn2)nc(-c2ccccn2)n1 was read as P. yoelii liver inactive.
For COc1ccc(N2CCN(C(CNC(=O)CC(C)C)c3ccco3)CC2)cc1 (centres undefined) the results were P. yoelii liver inactive.
Screening Cc1cc(Br)cc(Cl)c1OC(=O)c1ccno1 returned P. yoelii liver inactive.
For O=C(NNc1nc2ccccc2nc1Cl)Nc1ccc(Cl)cc1 the results were P. yoelii liver inactive.
For O=C(Nc1ccc(C(=O)Nc2cccc(C3=NCCN3)c2)cc1)c1ccc(C2=NCCN2)cc1 the results were P. yoelii liver inactive.
`CCOC(=O)N1CCN(C(=O)CSc2nc(-c3ccc(Cl)cc3)cn2-c2ccc(C)cc2)CC1` gave P. yoelii liver inactive.
Screening Cc1ccc2nc(C(C#N)=Cc3cn(Cc4ccc(Cl)cc4Cl)nc3-c3ccccc3)[nH]c2c1 returned P. yoelii liver inactive.
For O=C(C[n+]1ccc(C=NO)cc1)NC12CC3CC(CC(C3)C1)C2 the results were P. yoelii liver inactive.
For COc1ccccc1NC(=O)N(Cc1ccccc1)C(C)c1nc2ccccc2c(=O)n1-c1cc(C)ccc1OC (centres undefined) the results were P. yoelii liver inactive.
`CCc1ccc2[nH]c(=O)c(CN(CCN(CC)CC)C(=S)NCCCN(CC)CC)cc2c1` gave P. yoelii liver inactive.
For COc1ccc(C(=O)Oc2ccccc2-c2nc3cc(C)ccn3c2NC(C)(C)CC(C)(C)C)c(OC)c1 the results were P. yoelii liver inactive.
`CCCN1CCC(c2nc(N3CCOCC3)ncc2-c2cc(C)no2)CC1` gave P. yoelii liver inactive.
COC(=O)c1c(-c2c(F)cccc2Cl)noc1/C=C/Nc1ccc(OC)cc1 was read as P. yoelii liver inactive.
`C[n+]1c2n(c3ccccc31)N=C(c1ccccc1)CS2` gave P. yoelii liver inactive.
Screening COc1cc2c(N3CCOCC3)cc(O)c(CC(=O)Nc3ccccc3)c2cc1OC returned P. yoelii liver inactive.
For CCOC(=O)c1ccc(NC2=C(N3CCCCC3)C(=O)c3ccccc3C2=O)cc1 the results were P. yoelii liver inactive.
NC(=O)C1CCN(S(=O)(=O)c2cc(Br)c(Br)s2)CC1 was read as P. yoelii liver inactive.
CC[n+]1cccc2ccc3cccnc3c21 was read as P. yoelii liver inactive.
`COCCN(Cc1cc2ccc(F)cc2nc1N1CCCCCC1)C(=O)c1ccoc1` gave P. yoelii liver inactive.
For CC(C)(C)NCC(O)Cn1c2ccc(Br)cc2c2cc(Br)ccc21 (centres undefined) the results were P. yoelii liver inactive.
Cc1ccc(N2C(=O)C3C(C2=O)C2(c4ccccc4)C(=O)C3(c3ccccc3)C(c3ccccc3)=C2c2ccccc2)cc1Br (centres undefined) was read as P. yoelii liver inactive.
Screening CC1(C)C2CCC1(C)C(OCC[N+]1(Cc3ccccc3)CCCC1)C2 (centres undefined) returned P. yoelii liver inactive.
Cc1ccc(NC(=O)c2cc(C(=O)c3cc(Cl)ccc3O)cn(-c3ccc(C)cc3C)c2=O)c(C)c1 was read as P. yoelii liver inactive.
